NPYLR7 agonist = mosquito NPYLR7 agonism; HEK293T NPYLR7/Galpha15, GCaMP6s calcium fluorescence; activation, % at 10 µM; actives 0.15% (n = 270,000); in the data active = activation above about 40%;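 note: 0% = vehicle and 100% = reference agonist at the receptor; some compounds past the cut are filed as inactive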
NPYLR7 agonist max-min = second read-out of NPYLR7 agonist, no call of its own (marks repeat the call); activation, %; measured here: Max-Min RFU normalised activation; some inactives read as strong as hits;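 span of the calcium signal over five minutes; 0% = vehicle and 100% = native peptide agonist; compound fluorescence can raise it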
* marks the source's active call; other numbers are inactive results; & = joins results of further samples.

SMILES	NPYLR7 agonist	NPYLR7 agonist max-min
CC(NCc1cccc(C#N)c1)c1ccccc1F (configuration not stated)	-1	-1
CC(C)(C)CC(=O)N1CCN(S(=O)(=O)c2cccc(Cl)c2)CC1	6	3
COc1cc(C=C(C#N)c2nc(C)cs2)cc2c1OCO2	2	8
CC12CC3CC(Br)(C1)CC(C(=O)O)(C3)C2 (configuration not stated)	6	6
Cc1nc(C)c(CN2CC[C@@H](N3CCN(c4ccccn4)CC3)[C@H](O)C2)nc1C	9	8
CC1(C(=O)NS(=O)(=O)c2ccccc2)CCN1C(=O)C/C=C/c1ccccc1 (configuration not stated)	1	1
COc1ccc(C(=O)N2CCN(C(c3ccccc3)c3ccc(Br)cc3)CC2)c(OC)c1 (configuration not stated)	17	-4
OC1CN(Cc2ccc(F)cc2)CCN(Cc2ccc(F)cc2)C1	3	4
CCc1cccc(NC(=O)N(CC(=O)N(Cc2ccc3c(c2)OCO3)Cc2cccs2)C2CC2)c1	-4	2
CCN(CC)C(=O)CSCC(=O)Nc1ccc(OC(F)F)cc1	17	8
COC(=O)c1ccc(NC(=O)c2cnc3onc(C(C)C)c3c2)s1	5	2
CN1CCN(c2ncccc2CNC(=O)c2cnnn2-c2ccccc2)CC1	8	6
COc1ccc(-c2noc(COc3cc(Cl)ccc3Cl)n2)c(OC)c1	0	0
N#Cc1c(N=Cc2cc(Br)ccc2O)sc2c1CCC2	0	0
Cc1[nH]n(C(N)=S)c(=O)c1C(c1ccccc1)C(C#N)C#N (configuration not stated)	-4	-4
COc1cccc(C(=O)N2CCOC(COCc3ccccc3F)C2)c1C (configuration not stated)	12	10
Cc1ccc(-n2nnnc2CNC(=O)C(c2ccccc2)c2ccccc2)cc1	-6	-7
CCOc1ccc(-n2c(=O)c3ccc(Cl)cc3n(CC(=O)NCc3cccc(C(F)(F)F)c3)c2=O)cc1	15	14
S=c1n(CN2CCCC2c2ccccc2)cc2ccccn12 (configuration not stated)	13	5
O=C(C1CCCN1CC1CCCCO1)N1CCOCC1 (configuration not stated)	11	7
Cc1ccc(C(=O)Nc2ccc(Nc3ccc(-n4cccn4)nn3)cc2)cc1C	-5	-10
O=C(Nc1nc(-c2nc3ccccc3s2)cs1)c1ccc([N+](=O)[O-])o1	10	5
CC(c1ccon1)N(C)Cc1cn(C)nc1-c1ccc2c(c1)OCCO2 (configuration not stated)	-1	-4
O=C(O)C1COC2(CCN(C(=O)c3ccco3)CC2)N1C(=O)c1ccc(F)cc1 (configuration not stated)	9	9
COc1cc(/C=C2\C(=O)NC(=S)N(c3ccc(Cl)cc3)C2=O)ccc1OCC(=O)O	-6	-11
Cc1c2c(n3c(nc4ccccc43)c1C#N)N(CCN(C)C)CC2	8	5
CCOc1ccc2nc(CN3CCOC(CN)C3)ccc2c1 (configuration not stated)	12	9
CNC(=O)[C@@H]1C[C@@H](N)CN1Cc1cn[nH]c1-c1cc(C)ccc1C	7	6
Cc1ccccc1OCC1c2ccsc2CCN1C(=O)CN(CC(C)C)C(=O)NC(C)(C)C (configuration not stated)	-2	2
CCOC(=O)CCC(=O)N(CCOC)CC(=O)N1CC(=O)N(c2ccc(Cl)cc2)C1	16	14
COc1cccc(Cc2nsc(N3CCC(C(=O)N4CCN(c5cccc(C(F)(F)F)c5)CC4)CC3)n2)c1	-8	-13
Cc1nc2c(c(N3CCC(Oc4ccccc4C)CC3)n1)CNC2	-2	-2
CC1=C(C(=O)Nc2cc(Cl)ccc2C)C(c2cccs2)NC(=O)N1 (configuration not stated)	-1	-2
O=C1COc2ccc(C(=O)C=Cc3ccc4ccccc4c3)cc2N1	1	-3
COC(=O)C1=C(C)N(C)C(C)=C(C(=O)OC)C1c1cc([N+](=O)[O-])ccc1Cl	-7	-6
CCC(=O)Nc1nnc(SCc2cc(=O)c(OC(=O)c3cc4ccccc4o3)co2)s1	3	1

3 structures from above, ordered by molecular weight, rising:
SMILES	NPYLR7 agonist	NPYLR7 agonist max-min
Cc1nc2c(c(N3CCC(Oc4ccccc4C)CC3)n1)CNC2	-2	-2
CNC(=O)[C@@H]1C[C@@H](N)CN1Cc1cn[nH]c1-c1cc(C)ccc1C	7	6
CCC(=O)Nc1nnc(SCc2cc(=O)c(OC(=O)c3cc4ccccc4o3)co2)s1	3	1

Carrying on:
SMILES	NPYLR7 agonist	NPYLR7 agonist max-min
Oc1c(C(c2ccncc2)N2CCOCC2)cc(Cl)c2cccnc12 (configuration not stated)	12&2	5&-1
Cc1ccc(C)n1C1CCN(S(=O)(=O)N(C)C)CC1	-2	-4
CCc1nc(C)c2c(C)c(C(=O)Nc3ccccc3C(=O)NC(C)CC)sc2n1 (configuration not stated)	3	8
CCOc1ccc(-c2cc3c(=O)n(CC(=O)NCc4ccc(C)cc4)ccn3n2)cc1	5	3
CCc1nc2ccc(C(=O)NCCN3CCNC3=O)cn2c1N(CC)C(=O)CCC1CCCC1	14	7
N#CC(c1ccccc1)N(CCCCl)C(=O)c1ccc(Br)o1 (configuration not stated)	6	5
O=C1c2ccccc2C(=O)N1CNc1ccc(Cc2ccncc2)cc1	2	-6
CCCCC[n+]1cccc(C(=O)N2c3c(nc(NC(=O)C(C)C)[nH]c3=O)NC(C)C2C)c1 (configuration not stated)	-12	-7
CC(C)c1cc(-c2ccc(O)cc2)nc(C(F)(F)F)n1	14	9
O=[N+]([O-])c1ccc(C=Nn2cnnc2SCc2ccccc2)cc1	-2	-4
CC(=O)N1Cc2ccccc2CC1C(=O)N1CCN(c2ccccc2)CC1 (configuration not stated)	7	7
N#CSc1ccc(N2CCOCC2)cc1	-10	-17
CCc1ccc(N2CCN(Cc3ccc(OC)cc3)C(C)C2=O)cc1 (configuration not stated)	1	7
COc1ccc2c(CN(C)C(C)c3nc(C)sc3C)[nH]nc2c1 (configuration not stated)	-2	-3
OC1CCN(c2ccnc(-c3cc4ccccc4o3)n2)C1 (configuration not stated)	11	9
CC(=O)c1ccc(N2CCN(C(=O)C3CCCCC3C(=O)N3CCC(C#N)(c4ccccc4)CC3)CC2)cc1 (configuration not stated)	-2	-8
COc1ccnc(N2CCN(C(=O)NCc3c(C)cccc3F)CC2)c1	-32	-30
CC(NC(=O)c1ccc2c(c1)NC(=O)CS2)c1ccco1 (configuration not stated)	2	8
O=C(NCCc1cnc2ccccn12)c1ccccc1C1CCNC1 (configuration not stated)	5	4
CCCCCc1ccc(C(=O)Nc2ccc(N3CCCC3)c(C(=O)NCCCN(C)C)c2)cc1	-13	-12
Cc1ccc(C(=O)Nc2c(-c3ccccc3)nc3ccccn23)cc1	-7	3
O=C1NCC2CN(Cc3ccc(Cl)cc3)CCN2C1=O (configuration not stated)	-6	-11
O=c1oc2ccccc2c2c1nnn2CCCN1CCOCC1	17	7
C#C[C@]1(O)CC[C@H]2[C@@H]3CCc4cc(O)ccc4[C@H]3CC[C@@]21C	-13	-17

3 entries from above, comma-delimited.
smiles,NPYLR7 agonist,NPYLR7 agonist max-min
O=C(NCCc1cnc2ccccn12)c1ccccc1C1CCNC1 (configuration not stated),5,4
CCc1ccc(N2CCN(Cc3ccc(OC)cc3)C(C)C2=O)cc1 (configuration not stated),1,7
CC(NC(=O)c1ccc2c(c1)NC(=O)CS2)c1ccco1 (configuration not stated),2,8

More results follow.
SMILES	NPYLR7 agonist	NPYLR7 agonist max-min
CCC(CC)C(=O)N(C)c1c(C)nc2ccc(C(=O)Nc3ccc(C(N)=O)cc3)cn12	1	1
Cc1cc(C)nc(Sc2ccc(C=C(C#N)C#N)o2)n1	3	4
CC(=O)c1cccc2c1OC(C)C(=O)N2Cc1ccc(Cl)cc1 (configuration not stated)	5	2
CCCCOc1ccc(C(=O)Nc2ccc(C3SCC(=O)N3c3ccc(CC)cc3)cc2)cc1 (configuration not stated)	5	15
Cc1ccccc1NC(=O)CSc1nc(=O)n(CCCN2CCOCC2)c2c1CCCC2	-1	-2
CCc1nc2ccc(C(=O)NCCCn3ccnc3)cn2c1N(CC)CC(=O)N(C)C	20	19
COc1ccc(/C=C/CN2CCN(Cc3cccs3)C(CCO)C2)cc1 (configuration not stated)	3	0
Cn1nnc2c(NC3CCCCC3)ncnc21	2	3
CCc1nc2c(OCCOc3ccccc3)cccn2c1N(C)C(=O)c1ccc(OC)cc1	-12	-15
COC(=O)c1c(NC(=O)c2c(-c3ccccc3Cl)noc2C)sc2c1CCC(C(C)(C)C)C2 (configuration not stated)	-4	-5
O=C(COc1ccc2c(c1)OCO2)Nc1cccc(C(=O)NC2CC2)c1	4	12
CC(=NOCc1nc2c3c4c(sc3ncn2n1)C(C)(C)NC(C)(C)C4)c1ccc(C)cc1	3	3
COC(=O)C(C)Sc1nnc(CNC(=O)c2ccc(F)cc2)o1 (configuration not stated)	2	0
C#Cc1cccc(N(CC)C(=O)c2ccc(CNS(C)(=O)=O)o2)c1	-6	-7
C=CCN(CC=C)C(=O)CN1CCCC(c2cc(=O)[nH]c(C)n2)C1 (configuration not stated)	10	-1
Cc1cccc(N=c2scc(-c3ccccc3)n2N2CCOCC2)c1C	0	-1
CCc1ccccc1NC(=O)c1nnn(Cc2nc(-c3ccccc3C)oc2C)c1C	8	-2
Cc1ccccc1-n1nnc(-c2nnc(-c3ccco3)o2)c1C	2	3
COc1ccc(Cl)c(CN2CCN(c3ncc(F)cn3)CC2)c1F	11	4
CC(Cc1cccs1)NC(=O)c1cccc(OC2CCN(S(C)(=O)=O)CC2)c1 (configuration not stated)	8	1
O=C(Nc1cccnc1)c1cnn2c(C(F)(F)F)cc(-c3ccco3)nc12	-1	0
N#Cc1ncn(CC(=O)NCCc2cccc(Cl)c2)n1	1	-2
O=C(NCC1CCCO1)[C@@]1(OCc2ccccc2F)CC(OCc2cccc(OC(F)(F)F)c2)[C@H](O)[C@H](O)C1 (some centres not stated)	4	7
CCCN(CCC)CC(O)CN1C(=O)NC(C)(C)C1=O (configuration not stated)	0	-3
O=C(c1cc(-c2ccc(O)cc2)n[nH]1)N1CC(c2ccncc2)C1	0	1
CC(=O)NCCNC(=O)C1(C)Cc2c(-c3ccc(C(N)=O)cc3)ccnc2O1 (configuration not stated)	0	-2
Brc1cccc(C=Cc2nc3ccccc3o2)c1	-3	5
Cc1nc(CN2CCN(c3cc(C(C)C)nc(N(C)C)n3)CC2)cs1	-1	-2
Cc1nnc(CN(C)Cc2ccc(C(=O)Nc3c4c(nn3C)CCC4)cc2)o1	4	0
Cc1cccc(Nc2ccc(N3CCN(C(=O)CCc4ccccc4)CC3)nn2)n1	12	4
COc1ccc(-c2ccc(C)c(NS(=O)(=O)CCc3ccccc3)c2)nn1	5	9
CC(OC(=O)c1ccc2c(c1)C(=O)N(Cc1ccco1)C2=O)C(=O)c1ccc(C(C)(C)C)cc1 (configuration not stated)	-2	-7
CC1(C(=O)O)CCCN1C(=O)c1cc(F)cc(F)c1 (configuration not stated)	-4	-6
COC(=O)C1=C(C)NC(=S)NC1c1cccc([N+](=O)[O-])c1 (configuration not stated)	-8	14
CC(C)c1nc(CCN(C)C(=O)c2cc(=O)c3ccccc3o2)no1	8	6
CCN(CC)C(=O)Oc1ccc2c(ccn2Cc2ccc(Cl)cc2)c1NC(=O)c1ccc(C(F)(F)F)c(F)c1	2	3

Of the compounds above, five have an aryl thioether with sulfur outside any ring.
SMILES	NPYLR7 agonist	NPYLR7 agonist max-min
CCC(=O)Nc1nnc(SCc2cc(=O)c(OC(=O)c3cc4ccccc4o3)co2)s1	3	1
O=[N+]([O-])c1ccc(C=Nn2cnnc2SCc2ccccc2)cc1	-2	-4
Cc1cc(C)nc(Sc2ccc(C=C(C#N)C#N)o2)n1	3	4
Cc1ccccc1NC(=O)CSc1nc(=O)n(CCCN2CCOCC2)c2c1CCCC2	-1	-2
COC(=O)C(C)Sc1nnc(CNC(=O)c2ccc(F)cc2)o1 (configuration not stated)	2	0

Additional results follow.
SMILES	NPYLR7 agonist	NPYLR7 agonist max-min
CCOC(=O)CNC(=O)CCc1ccc(-c2ccc(F)cc2)n1-c1ccc(NC(C)=O)cc1	3	0
CC(c1ccncn1)N(C)Cc1cn(Cc2ccccc2)nc1-c1cc2ccccc2o1 (configuration not stated)	9	-2
N#CCc1nc(-c2cc3cc(Br)ccc3oc2=O)cs1	-3&-4	-3&-5
CCOC(=O)c1cc2cc(NC(=O)N(CC3CCOC3)C3CC3)ccc2s1 (configuration not stated)	-1	8
CCCCN(CC(=O)N1c2ccccc2-n2cccc2C1c1cccc(C)c1)C(=O)c1cccc(OC)c1 (configuration not stated)	-5	2
Cc1ccc(CN(C)C(=O)Nc2ccc(N3CCCC3=O)cc2)cc1	4	4
O=C(CSc1n[nH]c(=O)c2cc(-c3cccs3)nn12)N1CCCc2ccccc21	-1	-2
COC(=O)c1sc(NC(=O)c2ccccc2F)c(C(=O)OC)c1C	3	5

Bioassay records: PubChem BioAssay, Fisher Drug Discovery Resource Center

The list is partial; the hit share may differ from the screen's.
